Mtb MbtI inh = inhibitors of Mycobacterium tuberculosis siderophore enzyme MbtI | purified MbtI enzyme, fluorescence intensity read-out | 100,000 compounds, 0.89% hits | inhibition, %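 (about 17 µg/mL by stock and volumes)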 | P9WFX0 | AID 493033;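 active = above 50% in both replicates, above 80% if mildly self-fluorescent; inactive = the rest, strongly fluorescent compounds included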;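 note: 0% = mean of negative and 100% = mean of positive controls; one replicate is shown; some compounds called inactive have numbers as strong as hits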
Target sequence (P9WFX0 whole entry, looked up): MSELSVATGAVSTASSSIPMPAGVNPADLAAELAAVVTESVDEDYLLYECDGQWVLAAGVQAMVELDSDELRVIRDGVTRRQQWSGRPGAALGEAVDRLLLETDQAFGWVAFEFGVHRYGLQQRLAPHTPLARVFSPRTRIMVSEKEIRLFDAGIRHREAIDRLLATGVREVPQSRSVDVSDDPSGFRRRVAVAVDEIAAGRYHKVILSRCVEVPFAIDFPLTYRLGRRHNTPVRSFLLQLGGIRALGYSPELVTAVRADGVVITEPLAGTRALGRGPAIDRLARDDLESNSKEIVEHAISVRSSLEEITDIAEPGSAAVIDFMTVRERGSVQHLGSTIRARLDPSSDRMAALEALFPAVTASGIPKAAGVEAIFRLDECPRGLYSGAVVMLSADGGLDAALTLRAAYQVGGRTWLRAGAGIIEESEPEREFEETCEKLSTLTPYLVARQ
Mtb MenB inh = inhibitors of Mycobacterium tuberculosis MenB enzyme; P9WNP5; MenB enzyme assay, absorbance read-out; some hits fall short of the stated cut; inhibition, %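 (about 12 µg/mL by stock and volumes)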; 100,000 compounds, 0.43% hits;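 active = mean of two replicates above 30%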;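 note: 0% = no compound and 100% = wells with inactive enzyme; the first replicate is given; strong numbers were not always called active; inactives centre near -10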
Polio RdRp inh = inhibitors of poliovirus RNA polymerase binding and polymerization | % elongation, % (compound at 16.7 µg/mL) | poliovirus polymerase elongation, fluorescence polarization; active compounds read low | 150,000 compounds, 0.66% hits | AID 588519; in the data active = % elongation below about 90%; note: some results filed as inactive read as strong as hits
Target sequence (P03300 1749-2209 limits assumed): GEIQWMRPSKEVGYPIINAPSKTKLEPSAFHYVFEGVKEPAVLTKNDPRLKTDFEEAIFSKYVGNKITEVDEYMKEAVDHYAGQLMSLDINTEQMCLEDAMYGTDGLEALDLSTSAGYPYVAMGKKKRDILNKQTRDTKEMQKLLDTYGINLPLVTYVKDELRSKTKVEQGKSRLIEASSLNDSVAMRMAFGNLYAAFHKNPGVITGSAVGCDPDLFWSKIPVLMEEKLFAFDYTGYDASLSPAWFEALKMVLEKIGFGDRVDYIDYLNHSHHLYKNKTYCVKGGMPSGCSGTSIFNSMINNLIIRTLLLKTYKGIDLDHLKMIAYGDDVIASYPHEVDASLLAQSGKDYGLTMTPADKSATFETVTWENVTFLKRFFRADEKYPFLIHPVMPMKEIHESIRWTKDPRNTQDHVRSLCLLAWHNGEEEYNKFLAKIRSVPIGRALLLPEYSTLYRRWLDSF
Polio RdRp inh intensity = further read-out of Polio RdRp inh, marked with its call; % elongation; measured here: total intensity read-out; formula for this scale not given here;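 total fluorescence in place of polarization; lower means less elongation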
* marks the source's active call; other numbers are inactive results; . = not tested or not shown; & = joins results of further samples; ! = repeats disagree. The order is random. About 1.9% of those tested had a hit in this group.

molecule,Mtb MbtI inh,Polio RdRp inh,Polio RdRp inh intensity,Mtb MenB inh
COc1ccc(C2CC(=O)N(CC(=O)N3CCCCC3)c3ccccc3S2(=O)=O)cc1OC (stereo not given),1,102,101,-50
NC(=O)c1ccc[n+]([C@H]2O[C@@H](COP(=O)([O-])OP(=O)(O)OC[C@H]3O[C@@H](n4cnc5c(N)ncnc54)C(O)[C@H]3O)C(O)[C@H]2O)c1 (stereo not given in full),-1,98,100,-7
CCOCCCNc1ncnc2sccc12,-11,83*,72*,-14
CC1=NN(c2ccccc2)C(=O)/C1=C\c1cn(CCC#N)nc1-c1ccc(F)cc1,-1,100,103,-18
COc1ccc(CC(=O)N2CCCCCC2)cc1OC,.,110,112,-21
Cc1ccc(NS(=O)(=O)c2ccc3c(c2)CCC(=O)N3)cc1Cl,-1,100,104,2
Cc1ccc(NC(=O)CSc2cc(=O)n(C)c3ccccc23)nc1,-6,101,96,-16
Cn1cc(CCCC(=O)N2CCCC2)c2ccccc21,-27,103,104,1
CCN(CC)S(=O)(=O)c1ccc(=O)n(CC(=O)Nc2cccc(OC)c2)c1,4,112,109,-38
CCS(=O)(=O)Nc1cccc(-c2cn3ccccc3n2)c1,130,100,100,-9
COCCn1c(N)cc(=O)[nH]c1=S,10,100,106,-33
CCC(=O)N1c2cc(Cl)ccc2-n2c(nn(C(=O)CC)c2=O)N1C(=O)CC,-10,105,110,15
CS(=O)(=O)c1ccc2nc(NC(=O)Oc3ccccc3)sc2c1,9,101,100,-8
COC(=O)N=Nc1c(O)[nH]c2ccc(Br)cc12,15,103,100,-26
O=C(CCS(=O)(=O)c1ccccc1)Nc1cccc(-c2nc3ccccc3o2)c1,123,104,103,-32
O=C(CS(=O)(=O)c1ccccc1)Nc1ccccc1O,-2,101,102,4
COC(=O)c1c(NC(=O)C2CCCC2)sc2c1CCCC2,.,82*,81*,-16
Cn1cc(S(=O)(=O)N2CCCC2)cc1C(=O)N1CCN(c2ccccc2)CC1,-6,99,101,-28
Cc1ccc(-c2noc(CCCC(=O)N3CCCCC3)n2)cc1,12,103,104,10
O=C(O)C1CCN(C(=O)N2CCOc3ccccc32)CC1,4,102,105,9
O=C1CCCN1C(=O)CCC(=O)N1CCCC1=O,-8,100,100,1
COc1cccc2cc(C(=O)OCCN3CCOCC3)c(=O)oc12,10,.,.,-5
Cc1ccc(NS(=O)(=O)c2cc(C(=O)O)ccc2Br)cc1,2,102,101,-2
Cc1cc(C)nc(SCCC(=O)Nc2ccccc2)n1,-5,105,102,6
CCCn1c(SCC(=O)N(C2CCCCC2)C2CCCCC2)nc2c1c(=O)n(C)c(=O)n2C,-10,100,99,0
COc1ccc(C(=O)N=C2CCC(C#N)=C3c4cc(OC)c(OC)cc4CCN23)cc1,-8,102,106,-31
O=C(c1ccccc1)C1CCN(C(=O)Nc2ccc(Cl)cc2)CC1,-3,101,111,-7
CC1CN(C(=S)NC(=O)c2ccc(Cl)cc2)CC(C)O1 (stereo not given),6,101,101,-23
O=C1CS/C(=N\C(=O)N2c3ccccc3Sc3ccccc32)N1,.,132,135,2
COC(=O)C(O)(C1=C(N2CCOCC2)/C(=C\c2ccccc2)CC1)C(F)(F)F (stereo not given),12,106,109,-20
CCc1ccc(NS(=O)(=O)c2ccc3[nH]cc(C(=O)NCc4ccco4)c(=O)c3c2)cc1,4,101,100,-8
CCN(CC)C(=O)CSc1nnc2sc3ccccc3n12,0,102,107,14
CC(C)Oc1ccc(/C=C/C(=O)Nc2noc3ccccc23)cc1,22,100,102,4
COc1ccccc1C(=O)OCC(=O)Nc1ccccc1,3,103,106,.
O=C(NC1CCCCC1)C1OC(c2ccccc2)OC1C(=O)NC1CCCCC1 (stereo not given),-9,102,99,-148
Cc1ccc(CNC(=O)Cn2c(SCc3ccccc3F)nc3cccnc32)cc1,175,103,106,-5
N#CCCn1cc(/C=N/NC(N)=S)c(-c2ccccc2)n1,31,103,102,-44
CC/C(Cc1ccccc1)=N/NS(C)(=O)=O,-17,98,95,1
O=C(NCc1cccs1)c1cnc2ccccn2c1=O,1,105,110,-7
NC(=S)n1[nH]c(-c2ccccc2)c(N=Nc2nccs2)c1=O,18,99,91,-113
O=c1[nH]c(=O)c2[nH]cnc2[nH]1,-24,.,.,-7
CC(C)C(=O)N=c1scc(-c2ccccc2)n1-c1ccccc1Cl,-9,101,100,.
Cc1c(C(=O)OCC(=O)c2ccc(Cl)s2)sc2nc3n(c(=O)c12)CCC3,-3,.,.,-38
CNC(=O)CSc1nc2ccccc2c(=O)n1C,-9,98,103,-16
COC(=O)c1ccc(OCC(O)Cn2c(C)[n+](C)c3ccccc32)cc1 (stereo not given),13,102,97,-27
Cc1ccc(Cl)cc1N1CCN(C(=O)CCNS(=O)(=O)c2ccc3c(c2)CCC(=O)N3)CC1,-9,101,101,-19
CC(C)(c1ccccc1)c1ccc(OCCN2CCOCC2)cc1,-5,95,86,-20
COc1ccc(-c2[nH]c(SC)nc(=S)c2C#N)cc1,13,100,101,-25
CCS(=O)(=O)N1CCC(NC(=O)C(Cc2ccc(OC)c(OC)c2)NC(C)=O)CC1 (stereo not given),-8,105,99,-71
O=C(/C=C/c1ccccc1)OCC(=O)c1ccc[nH]1,4,106,113,-16
CN(C)S(=O)(=O)c1ccc(C(=O)OCC2COC(C)(C)O2)cc1 (stereo not given),-11,.,.,-15
N#CCSc1nc(-c2cccs2)cc(-c2cccs2)c1C#N,15,101,106,10
CNC(=O)Cn1cc2c(n1)CCC(C)C2 (stereo not given),-3,101,106,12
CCOCC(=O)Nc1c(C(=O)Nc2ccc(F)c(F)c2)oc2ccccc12,135,100,104,6
Cc1cccc(C#CCN2CCCCC2)c1,0,103,102,-3
O=S(=O)(NCCCn1ccnc1)c1cc(Cl)ccc1Cl,.,104,111,-34
Clc1ccc2nc(-n3nc4ccccc4n3)nc(-c3ccccc3)c2c1,.,105,104,-11
O=C(Cn1c(-c2cccs2)cc2ccccc21)NCC1CCCO1 (stereo not given),118,102,104,-7
O=C1CSC(N(c2ccccc2)c2ccccc2)=N1,5,101,101,-6
CC(=O)Nc1ccc(C(O)(C(F)(F)F)C(F)(F)F)cc1,-8,105,103,.

(continued)
molecule,Mtb MbtI inh,Polio RdRp inh,Polio RdRp inh intensity,Mtb MenB inh
COC(=O)C(CO)NC(=O)c1ccccc1 (stereo not given),-9,101,102,-21
N#Cc1ccc(NC(=O)COC(=O)CCC2CCCCC2)cc1,-1,99,101,-7
COc1ccc(N=Cc2c(O)ccc3oc4c(c23)CCCC4)cc1,-12,103,108,-19
Nc1ccc(-c2nc3ccc(N)cc3s2)cc1,115,99,100,-62
CCN(CC)C(=O)Nc1cnc2ccccc2c1,42,103,102,-29
S=c1[nH]nc(COc2ccccc2)o1,64*!,101&103,104&99,-17&-16
COc1cc(NC(=O)CC(C)(C)C)c(OC)cc1Cl,.,102,106,-24
Cc1ccc2nc(CNc3ccc(Cl)cc3)cc(=O)n2c1,-2,102,102,-14
CCOC(=O)N1CCN(C(=S)NC(=O)c2cccc(OC)c2)CC1,10,101,101,-5
O=C(CSc1nc2ccccc2n1CC(=O)N1CCCC1)Nc1ccccc1,-3,102,104,-18
O=C1C(SCCO)=C(SCCO)C(=O)c2ccccc21,91*,99&93,101&95,20
COc1c2ccoc2nc2c(OC)c(O)ccc12,.,97,100,8
NC(=O)CSc1nc2c([nH]c3ccccc32)c(=O)n1-c1cccc(Cl)c1,-12,104,104,-1
CC1=NNC(=O)C1CC(=O)N/N=C/c1ccc(N(C)C)cc1 (stereo not given),115,99,101,-2
O=C(CSCc1ccccc1Cl)Nc1c[nH]c(=O)[nH]c1=O,-7,100,105,-62
COc1cccc(-c2noc(Cc3ccccc3)n2)c1,10,102,103,-27
Cc1cc(C)c(Cn2cccc2C2=NC(C)CO2)c(C)c1 (stereo not given),-9,102,103,-28
CCCCn1c(=N)n(CC(O)COc2ccccc2)c2ccccc21 (stereo not given),-2,102,101,-8
CC(=O)Oc1ccc(S(=NS(=O)(=O)c2ccccc2)c2ccc(OC(C)=O)cc2)cc1,-22,104,101,-196
O=C(NCCC1=CCCCC1)c1cc(-c2ccco2)[nH]n1,-3,104,103,-22
COc1ccc(N2CCN(C(=O)NC(=O)c3ccccc3)CC2)cc1,6,101,99,2
O=C(CCN1CCCCC1)NCC1OCCc2ccccc21 (stereo not given),.,101,104,-1
CC(=O)Oc1cccc(/C=C2\Sc3ccccc3C2=O)c1,-1,105,105,.
Cc1nc(N2CCCC2=O)sc1C(=O)O,4,101,101,2
COc1cc2cc(C)c(=S)[nH]c2cc1OC,91,102,101,-87
CCc1ccc(Oc2coc3cc(OC(=O)C4CCCCC4)ccc3c2=O)cc1,-10,102,107,-12
O=c1c2c(nc3c(-c4ccccc4)c[nH]n13)CCC2,64,101,103,12
CCN(Cc1cc(=O)n2oc(C)cc2n1)c1ccc(Cl)cc1,-19,103,109,-2
O=C(CCC1CCCCC1)NC1CCCC1,-19,100,103,-11
O=C(Nn1c(=O)[nH]c2ccsc2c1=O)c1ccccc1,1,99,101,-5
O=C(O)c1ccc(/C=c2/sc3n(c2=O)CCN=3)cc1,21,99,98,9
Cc1cccc(NS(=O)(=O)c2cc(C(=O)NCc3ccco3)ccc2C)c1,-7,99,101,-6
CC1CC(=O)Nc2ccccc2N1C(=O)c1cccs1 (stereo not given),0,97,97,2
O=C(Nc1cccc(Cl)c1)Nc1ccc2nc3n(c(=O)c2c1)CCC3,-10,100,99,-19
O=C(Cc1ccccc1)NCC(=O)N1CCN(C(=O)c2ccco2)CC1,0,99,100,7
O=C(c1cnccn1)N(Cc1ccc(Cl)cc1)Cc1cc2cc3c(cc2[nH]c1=O)OCCO3,-4,99,102,25*
Cc1ccnn2cc3c(=O)n(C)c(=O)n(C)c3c12,4,101,101,-26
CC(C)c1ccc(NC2C=CS(=O)(=O)C2)cc1 (stereo not given),-6,100,102,-19
COc1ccccc1NC(=O)c1c(N=Cc2c(O)ccc3ccccc23)cnn1C,14,98,91,-12
CC1CCCC(NC(=O)c2cc(S(=O)(=O)N3CCCCC3)c[nH]2)C1C (stereo not given),-7,102,102,-4
CCCOC(=O)c1[nH]c2c(c1C)C(=O)CCC2,4,101,108,-35
O=C(Nc1ccc(SC(F)F)cc1)c1ccc2c(=O)n3c(nc2c1)CCC3,-5,103,109,1
CC(=O)Nc1ccc(NC(=O)COC(=O)Cc2c[nH]c3ccccc23)cc1,-8,98,104,4
Cc1cc(C)c2c(n1)sc1c(SCc3ccccc3)nc(C)nc12,-4,104,106,-25
CC(C)C1N=C2c3ccccc3N=C(SCc3cc(=O)n4cc(Br)ccc4n3)N2C1=O (stereo not given),124,101,100,-24
Cc1cc(Cl)ccc1OCC(=O)NN1C(=O)C2C3C=CC(C3)C2C1=O (stereo not given),-10,104,105,-15
Cc1cccc(C)c1NC(=O)CN1C(=O)c2ccccc2S1(=O)=O,1,101,102,13

Full records, looked up by structure. Order of values: Mtb MbtI inh | Polio RdRp inh | Polio RdRp inh intensity | Mtb MenB inh
Results for `CC1CCCC(NC(=O)c2cc(S(=O)(=O)N3CCCCC3)c[nH]2)C1C` (stereo not given) : -7 | 102 | 102 | -4
Results for `COc1ccc(C(=O)N=C2CCC(C#N)=C3c4cc(OC)c(OC)cc4CCN23)cc1` : -8 | 102 | 106 | -31
